From PubChem BioAssay
Marburg entry inh = Marburg virus entry inhibition; Marburg virus pseudotyped entry inhibition, cell reporter; control for the full effect not named in the record; about a third of the inactives were read at about 46 µM; Potency, µM (doses to about 37.8 µM), without a hit: at the highest dose activity change, negative = inhibition, actives largely listed as inhibitors; 300,000 compounds, 1.8% hits; active = well fitted inhibition curve with a large enough effect; inconclusive = small, poorly fitted or top-dose-only effect, or effect the other way; inactive = flat fitted curve, though single readings scatter; tested in HEK293 cells; about a fifth of its hits are not listed in these tables; also: % is scaled to controls: 0 for no effect and ±100 for the full control effect; luciferase read-out
NS1 inh = blocks influenza NS1 protein function; Potency, µM (top dose mostly 46.1 µM), for the others: top-dose activity, positive = more growth; 270,000 compounds, 0.4% hits; AID 2326; S. cerevisiae slowed by influenza A NS1, growth recovery by OD600; active means well fitted rising curve with a large enough effect; inconclusive means small, poorly fitted or top-dose-only effect; inactive means no such curve, though single readings can be large or run the other way; also: nearly all actives have a fitted effect of over 50% in size
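Growth recovery, yeast-based: influenza A NS1 expressed in S. cerevisiae causes slow growth, and suppressors are detected by OD600. The parent strain without NS1 is used as positive control.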
Cruzain inh noDet = blocks cruzain activity in detergent-free assay; Potency, µM, for inactives: max response, negative = inhibition, usual class: inhibitors; P25779; purified cruzain, Z-FR-AMC fluorescence, no detergent; 200,000 compounds, 2.3% hits; AID 1476;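 also: plate controls were enzyme without inhibitor for no effect and buffer without enzyme for full effect; nearly all actives have a fitted effect of over 40% in size; top concentration of the series not given in the record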
Target sequence (P25779 123-467 limits assumed): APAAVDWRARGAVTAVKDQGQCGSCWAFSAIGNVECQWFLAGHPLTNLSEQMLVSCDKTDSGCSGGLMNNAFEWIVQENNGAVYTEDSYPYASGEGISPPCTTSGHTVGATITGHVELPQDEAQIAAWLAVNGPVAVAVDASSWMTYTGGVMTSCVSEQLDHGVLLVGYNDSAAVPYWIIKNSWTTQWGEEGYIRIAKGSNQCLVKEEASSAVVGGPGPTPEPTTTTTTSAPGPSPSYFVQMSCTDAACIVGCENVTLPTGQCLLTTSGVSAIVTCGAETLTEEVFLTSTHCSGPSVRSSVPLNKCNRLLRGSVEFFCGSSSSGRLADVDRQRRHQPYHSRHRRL
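Detergent-free condition (0.00005% Triton X-100) in acetate buffer pH 5.5 with DTT. 1.5 nM enzyme and compound were pre-mixed 15 min, then 2 uM Z-FR-AMC substrate added; reaction progress from fluorescence change between first and third reads (60 s).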
StopGo reporter = FMDV 2A StopGo reporter, luciferase signal; human cells with a luciferase reporter of 2A StopGo recoding; control for the full effect not named in the record; Potency, µM (titrated, usually from 57.9 µM), for inactives: at the top dose signal change, negative = less light; 410,000 compounds, 1.2% hits; AID 1159524; active = well fitted falling curve with a large enough effect; inconclusive = small, poorly fitted or top-dose-only effect; inactive = no such curve, though single readings can be large or run the other way; tested in HEK293T cells; also: % is scaled to controls: 0 for no effect and ±100 for the full control effect; nearly all actives have a fitted effect of over 45% in size; luciferase light after 4 h
SARS PLpro yeast = blocks SARS-CoV papain-like protease in a yeast assay; 330,000 compounds, 0.19% hits; Potency, µM (top dose mostly 32.9 µM), inactives show at the highest dose activity, positive = growth rescue; S. cerevisiae expressing SARS-CoV PLpro, growth rescue; control for the full effect not named in the record; active means well fitted rising curve with a large enough effect; inconclusive means small, poorly fitted or top-dose-only effect; inactive means no such curve, though single readings can be large or run the other way; also: 0% is about no effect; nearly all actives have a fitted effect of over 55% in size; growth read by luminescence after 48 h
RE007 growth inh = less growth of the S. pombe RE007 Vpr strain. Potency, µM (series often up to 92.2 µM), for inactives: top-dose activity change, negative = less growth. AID 651644. 360,000 compounds, 0.21% hits. S. pombe RE007 Vpr strain, BacTiter-Glo ATP luminescence, 24 h; control for the full effect not named in the record; active = well fitted falling curve with a large enough effect; inconclusive = small, poorly fitted or top-dose-only effect; inactive = no such curve, though single readings can be large or run the other way;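 also: % is scaled to controls: 0 for no effect and ±100 for the full control effect; nearly all actives have a fitted effect of over 50% in size; the assay follows cell death caused by Vpr and the record does not say whether a fall means rescue or toxicity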
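Fission yeast strain RE007, carrying one chromosomally integrated HIV-1 vpr copy, was seeded at OD 0.01 in PMG+AL medium with 23 nL pinned compound. After 24 h at 30 °C and 99% humidity, viability was read by BacTiter-Glo luminescence.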
Cruzain inh Det = inhibitors of Trypanosoma cruzi cruzain with detergent; purified cruzain, Z-FR-AMC fluorescence, 0.01% Triton; Potency, µM, inactives show max response, negative = inhibition, actives largely listed as inhibitors; 200,000 compounds, 0.43% hits;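 also: plate controls were neutral wells for no effect and buffer without enzyme for full effect; nearly all actives have a fitted effect of over 40% in size; top concentration of the series not given in the record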
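Detergent-containing run (0.01% Triton X-100) in acetate buffer pH 5.5 with 5 mM DTT: enzyme at 1.5 nM final, 15 min compound preincubation at room temperature, then 2 uM Z-FR-AMC substrate. Activity taken as 60 s fluorescence increase at 360/450 nm.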
Lassa entry inh = Lassa virus entry inhibition; Lassa virus pseudotype entry inhibition, cell reporter; control for the full effect not named in the record; Potency, µM (series often up to 37.9 µM), without a hit: at the top dose activity change, negative = inhibition, hits mostly inhibitors; 300,000 compounds, 1.2% hits; active means well fitted inhibition curve with a large enough effect; inconclusive means small, poorly fitted or top-dose-only effect, or effect the other way; inactive means flat fitted curve, though single readings scatter; tested in HEK293 cells; also: % is scaled to controls: 0 for no effect and ±100 for the full control effect; nearly all actives have a fitted effect of over 50% in size; luciferase read-out
An asterisk follows results filed as active; ? = inconclusive; . = no result given; [ ] = another dose, or the depositor's remark. Unless noted, calls follow the shape of the dose curve; as a rule, active = well fitted curve in the direction sought with a large enough effect; inconclusive = small, poorly fitted or top-dose-only effect, or another doubt; inactive = no such curve, though single readings can be large; an effect the other way counts as inactive or inconclusive. Potency is read from the fitted curve at half-maximal effect.

SMILES | Marburg entry inh | NS1 inh | Cruzain inh noDet | StopGo reporter | SARS PLpro yeast | RE007 growth inh | Cruzain inh Det | Lassa entry inh
CC(NC(=O)c1cccc(C(F)(F)F)c1)C1CCCO1 (stereo unspecified) | 13% | -6% | 5% | 19% | 1% | -3% | -0.4% | 7%
CC(=O)OC1CC[C@@]2(C)C(=CC(=O)C3C4CCC(OC(C)=O)[C@@]4(C)CCC32)C1 (stereo partly specified) | ? | . | . | -15% | . | -9% | . | -2%
CN1CCCN(C(=O)c2ccc(Br)cc2)CC1 | 8%[46.1 µM] | 21% | . | -18% | -4% | -7% | . | -5%[46.1 µM]
NC(C(=O)O)C1CC(Cl)=NO1 (stereo unspecified) | -26% | 11% | -3% | . | 3% | . | 3.2% | 2%
CCc1ccccc1NC(=S)N(CCCN1CCN(C)CC1)Cc1cccs1 | ? | . | . | 8% | 0% | 5% | . | 0%
Cc1ccc(C)c(N2CCN(C(=O)CCNS(=O)(=O)c3ccc4c(c3)CCN4C(=O)C3CC3)CC2)c1 | . | . | ? | ? | . | . | -3.5% | ?
CC(C)c1cc(=O)oc2c3c4c(cc12)CCCN4CCC3 | ? | ? | -5% | . | -9% | -17% | -12% | ?
COc1ccc(Cn2nnnc2C(c2ccc(N(C)C)cc2)N2CCC(C)CC2)cc1 (stereo unspecified) | ? | 7% | -11% | 5% | 0% | -7% | -4.0% | -64%
COc1ccccc1N1CCN(C(=O)CSc2ncccc2-c2nc3ccccc3[nH]2)CC1 | ? | -40% | ? | -24% | 7% | -3% | -0.2% | 13%
CN(C(=O)COC(=O)c1cc2c(s1)CCCCC2)C1CCS(=O)(=O)C1 (stereo unspecified) | 1% | -7% | . | -19% | ? | -18% | . | -11%
CCNC(=S)N/N=C/c1cc(C)n(-c2ccc(Cl)cc2)c1C | ? | . | . | 43% | -4% | 11% | . | ?
CC(=O)c1ccc(N(C(=O)CNC(=O)c2ccco2)C(C(=O)NC2CCCC2)c2cccnc2)cc1 (stereo unspecified) | 0%[46.1 µM] | -9% | . | 2% | -2% | 5% | . | 17%
Cc1cc(C(=O)N2CCCc3ccccc32)no1 | 3% | 0% | -11% | -7% | -3% | -1% | 8.1% | ?
CC1(C)CC(=O)CC(=NCC(=O)O)C1 | -1% | 9% | -2% | . | 7% | -4% | -0.6% | 1%
Cc1cc(/C=N/n2cnnc2)c(C)n1-c1cccc(Cl)c1 | -14%[46.1 µM] | -46% | 8% | 0% | -1% | -7% | -1.2% | -22%
CC(C)(O)CN(C(=O)c1ccc([N+](=O)[O-])cc1)C1CCCC1 | 1% | . | . | -18% | . | 10% | . | 0%
CCOC(=O)N1CCC(NC(=O)c2ccc3c(c2)N(Cc2ccc(F)cc2)C(=O)c2ccccc2S3=O)CC1 (stereo unspecified) | -27%[46.1 µM] | . | ? | -20% | . | . | -1.7% | -30%[46.1 µM]
COc1ccc(CN2CCN(C(=O)CCC(=O)Nc3nnc(CC(C)C)s3)CC2)cc1F | . | 2.2µM* | . | ? | 15% | 13% | . | .
CCc1nnc2c3ccccc3nc(Nc3ccc(C(C)=O)cc3)n12 | . | . | 6% | -7% | . | . | -2.1% | -2%[46.1 µM]
CCCCn1c(O)c(C(CC)=NCCc2ccccc2)c(=O)[nH]c1=O | -29% | -138% | 8% | -27% | . | 6% | -0.9% | ?
O=C(NCc1cc(C(F)(F)F)cc(C(F)(F)F)c1)C12CN(Cc3ccccc3)CC1C(c1cccc([N+](=O)[O-])c1)=NO2 (stereo unspecified) | . | 22µM* | ? | -8% | -2% | ? | 5.2% | .
Cc1cccc(NCC(=O)N/N=C\c2ccc[nH]2)c1 | 7.1µM* | -4% | . | 0% | 1% | 3% | . | ?
O=S(=O)(NCCCc1ccccc1)c1cccc2nsnc12 | 9% | -11% | -3% | 3% | 1% | -21% | -4.9% | 1%
O=C(CSc1oc(-c2ccccc2)nc1S(=O)(=O)c1ccccc1)NCC1CCCO1 (stereo unspecified) | -26% | -4% | . | -20% | -5% | 12% | . | -10%
CCOC(=O)c1oc2ccc(S(=O)(=O)n3nc(-c4cc(OC)cc(OC)c4)cc3N)cc2c1C | -8%[46.1 µM] | . | ? | -9% | . | . | 16% | -1%[46.1 µM]
CN(CCCNC(=O)Cn1cc2c(n1)CCCC2)C1CCCCC1 | . | -8% | 2% | 0% | 6% | 8% | 1.4% | .
O=C(CCCN1C(=O)S/C(=C/c2ccccc2)C1=S)Nc1ccc(C(=O)O)cc1 | . | 11% | . | -7% | -10% | 20% | . | .
O=C(NCCc1ccccc1)c1ccc(-c2ccccc2C(F)(F)F)o1 | 4% | -43% | -3% | 0% | -9% | -19% | -14% | ?
O=C(CSc1nnc(Cc2ccccc2)n1-c1ccccc1)N1CCOCC1 | 9% | -6% | 13% | 10% | 6% | 9% | 1.6% | -8%
CC(C)N(Cc1ccccc1)S(=O)(=O)N(C)C | -9% | 16% | 3% | -7% | -5% | 0% | 5.8% | 0%
ONC(=Nc1ccccc1)c1ccc(Cl)cc1 | -23% | -15% | 0% | -18% | -11% | 1% | 4.1% | ?
Cc1noc(C)c1C(=O)Nc1nc(-c2ccc([N+](=O)[O-])cc2)cs1 | -9% | 9% | . | ? | 4% | 3% | . | -4%
CCCCc1nn2c(=O)cc(COC(=O)CNC(=O)c3ccccc3C)nc2s1 | . | . | -2% | 14% | . | . | -0.4% | 21%[46.1 µM]
Cc1cc(Nc2ccc(C)c(F)c2)n2ncnc2n1 | -1% | 0% | 0% | 0% | -5% | 4% | 0.1% | 5%
CCC(C)(C)n1nnnc1CN1CCSCC1 | 17% | 4% | -3% | . | 2% | 1% | 3.1% | 7%
Cc1c(CCO)c(=O)n(-c2ccccc2)n1S(=O)(=O)c1c(Cl)cc(Cl)cc1Cl | -2% | -55% | 9% | -23% | -27% | 13% | -2.5% | -33%
O=C(O)c1cc2c(cc1NC(=O)c1c(F)cccc1F)OCCCO2 | -9%[46.1 µM] | 2% | . | 22% | 0% | 6% | . | .
CCOc1ccccc1NC(=O)CCC(=O)O | 16% | 0% | 9% | . | 0% | -5% | 5.0% | 5%
Cc1ccc(Cl)cc1N1CCN(C(=O)Cn2cnc3sc(C)c(S(=O)(=O)N4CCC(C)CC4)c3c2=O)CC1 | -19%[46.1 µM] | . | 8% | -20% | . | . | -1.2% | 11%[46.1 µM]
O=C(CSc1nnc(-c2ccncc2)n1-c1ccc(F)cc1)NC(=O)NCc1ccco1 | 11% | -1% | 1% | . | -13% | -6% | -2.3% | 2%
CCOC(=O)C1=C(C)N(CCCC(=O)O)C(=O)NC1c1ccc(OC)cc1 (stereo unspecified) | 30% | -22% | 0% | 0% | 11% | -2% | -0.3% | 4%
COc1ccc(CCNC(=O)CSc2cn(Cc3ccccc3)c3ccccc23)cc1OC | -17% | 17% | 10% | ? | 6% | 9% | -3.6% | -12%
CCOc1ccc(CCNC(=O)c2cccc(S(=O)(=O)N3CCCCC3)c2)cc1OCC | ? | . | . | 28µM* | -2% | -18% | . | -24%
C/C(=N\O)C(C)NC(=O)c1ccccc1 (stereo unspecified) | 13% | 2% | -3% | 14% | 23% | . | -0.3% | -2%
Cc1ccc(C(=O)N/N=C(/CC(=O)c2cccs2)C(F)(F)F)cc1 | ? | 5% | -9% | -10% | -20% | -2% | -8.7% | ?
Cc1ccccc1-n1nnnc1SCC(=O)Nc1ccc(N2CCN(C)CC2)cc1 | . | -3% | . | -5% | -6% | -6% | . | .
C=C(C)COc1ccc2c(C)c(CC(=O)OC)c(=O)oc2c1C | -12% | -112% | ? | -11% | -37% | -14% | -7.8% | ?
Cc1cc(C)cc(NC(=O)c2ccc(CN3CCc4ccccc4C3)cc2)c1 | ? | -22% | . | ? | -3% | 6% | . | -7%
CC(C)=CC1C(C(=O)Nc2ccc(Br)cn2)C1(C)C (stereo unspecified) | -21% | -47% | 4% | -27% | -1% | 6% | -0.1% | -27%
O=C(NCc1ccccc1)c1ccc2c(c1)nc1n2CCCCC1 | . | . | -11% | 21% | . | . | -0.9% | ?
CCOc1cccc2sc(N(CCN(C)C)C(=O)c3cc4ccccc4cc3OC)nc12 | . | -10% | . | -13% | -4% | 6% | . | .
O=c1[nH]c(SCCOc2ccccc2F)nc2ccccc12 | ? | -1% | . | 16% | 1% | -11% | . | 1%
CC(C)NC(=O)CN(C(=O)CCC(=O)Nc1nccs1)c1ccc2c(c1)OCO2 | 12%[46.1 µM] | 5% | . | 12% | 8% | -7% | . | ?
Cc1ccc2c(C)nc(SC(C(=O)c3ccccc3)c3ccccc3)nc2c1 (stereo unspecified) | -55% | 9% | ? | -16% | -22% | 9% | -4.0% | -21%
Cc1n[nH]c(C)c1-c1nc2ccccc2[nH]1 | 1% | 0% | -8% | 10% | -11% | -6% | -0.5% | 16%
Cc1c(NC2=CC(=O)CCC2)c(=O)n(-c2ccccc2)n1C | ? | 3% | . | -10% | -1% | -11% | . | 25%[46.1 µM]
CCCn1c(C(C)NS(=O)(=O)c2ccccc2)n[nH]c1=S (stereo unspecified) | . | 5% | . | -22% | -3% | 2% | . | .
C=C1C(=O)C=C[C@]2(C)C[C@@H]3OC(=O)[C@](C)(O)[C@H]3C[C@@H]12 | . | ? | . | 28µM* | -6% | -20% | . | .
CCCn1c(SC(C)C(=O)NCC2CCCO2)nc2sc3c(c2c1=O)CCC3 (stereo unspecified) | -1%[46.1 µM] | . | . | -19% | -2% | 13% | . | -17%
O=C(CNC(=O)c1ccco1)Nc1ccc(OC(F)F)cc1 | 18%[46.1 µM] | 5% | . | -10% | 6% | 9% | . | 26%[46.1 µM]

2 records picked at random from those above, as already listed:
SMILES | Marburg entry inh | NS1 inh | Cruzain inh noDet | StopGo reporter | SARS PLpro yeast | RE007 growth inh | Cruzain inh Det | Lassa entry inh
C=C(C)COc1ccc2c(C)c(CC(=O)OC)c(=O)oc2c1C | -12% | -112% | ? | -11% | -37% | -14% | -7.8% | ?
O=c1[nH]c(SCCOc2ccccc2F)nc2ccccc12 | ? | -1% | . | 16% | 1% | -11% | . | 1%
